# Screening data: PubChem BioAssay, National Center for Advancing Translational Sciences (NCATS)
# A647 autofl – compound autofluorescence in A647 spectral region | AID 592 | Compound fluorescence, A647 channel (570/671 nm), Tris buffer | max dye-equivalent concentration, M | 59,000 tested, under 10 active; active means above 1 µM dye equivalent; inconclusive means 0.1 to 1 µM; inactive means 0.1 µM or less;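 note: values scaled relative to a standard on each plate; highest value over a series up to 38 µM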
#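 Compounds pinned into 100 mM Tris pH 8.0, 15 min at room temperature, then read with 570 nm excitation/671 nm emission filters. Fluorescence normalized to an on-plate six-point Alexa 647 standard curve, giving dye-equivalent concentration per compound concentration.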
# Resorufin fluor – compounds fluorescent in resorufin spectral region; Compound fluorescence, resorufin region 547/598 nm, buffer; hits give high values; max dye-equivalent concentration, M; 0.04% of 59,000 active; active = above 10 nM dye equivalent; inconclusive = 1 to 10 nM; inactive = 1 nM or less; a few of its hits are not listed in these tables; note: highest value over a series up to 38 µM
#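 Read-out: intrinsic compound fluorescence at ex 547/em 598 nm after 15 min at RT in pH 8.0 Tris (100 mM). Values expressed as resorufin-equivalent concentration from per-plate standard series.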
# TSHR agonist – activates the human thyroid stimulating hormone receptor | P16473 | HEK293-CNG-TSHR cells (CNG channel as cAMP sensor), membrane potential dye, cAMP | AID 926 | 0.48% of 73,000 active | Potency, µM (doses to about 57.1 µM), without a hit: at the top dose activation, most hits filed as activators; active = well fitted activation curve of enough size with the parental cells flat; inconclusive = any curve in the parental cells; inactive = parental cells flat and receptor cells flat or falling; note: potency is the fitted concentration of half-maximal effect; % of control where 0% means no effect; weak receptor curves with flat parental cells got no call and are not listed
# Target sequence (P16473 whole entry, looked up): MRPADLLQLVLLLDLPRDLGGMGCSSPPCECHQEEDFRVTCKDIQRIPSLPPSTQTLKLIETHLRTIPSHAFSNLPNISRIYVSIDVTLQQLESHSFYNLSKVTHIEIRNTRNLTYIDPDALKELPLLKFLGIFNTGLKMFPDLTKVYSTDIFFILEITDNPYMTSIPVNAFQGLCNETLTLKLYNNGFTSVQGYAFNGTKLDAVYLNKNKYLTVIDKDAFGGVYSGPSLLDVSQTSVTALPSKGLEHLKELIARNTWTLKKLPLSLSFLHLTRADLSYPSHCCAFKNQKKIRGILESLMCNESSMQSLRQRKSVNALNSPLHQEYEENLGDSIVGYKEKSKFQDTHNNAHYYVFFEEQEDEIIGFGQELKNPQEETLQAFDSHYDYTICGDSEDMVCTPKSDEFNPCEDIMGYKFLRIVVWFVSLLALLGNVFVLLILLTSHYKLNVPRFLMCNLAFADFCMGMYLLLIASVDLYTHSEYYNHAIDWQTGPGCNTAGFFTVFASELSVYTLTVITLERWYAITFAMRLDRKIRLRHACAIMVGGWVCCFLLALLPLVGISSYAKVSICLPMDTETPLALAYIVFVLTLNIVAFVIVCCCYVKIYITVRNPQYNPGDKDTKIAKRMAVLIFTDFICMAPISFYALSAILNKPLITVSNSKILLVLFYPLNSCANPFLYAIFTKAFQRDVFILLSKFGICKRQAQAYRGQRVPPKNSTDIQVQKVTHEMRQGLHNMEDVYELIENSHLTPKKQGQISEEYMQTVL
#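 HEK 293 cells stably expressing TSHR and a modified CNG channel, with CNG-only parental cells as counterscreen, were preloaded 60 min at room temperature with membrane potential dye containing 100 uM RO 20-1724. Compound exposure was 30 min, and depolarization was read as fluorescence at 590 nm.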
# AID923 – qHTS Assay for Allosteric/Competitive Inhibitors of Caspase-1: Spectroscopic Profiling in AFC Spectral Region; 1.1% of 75,000 active; compound fluorescence, AFC spectral region (405/520 nm); almost no hit is shown here; Potency, µM (doses to about 57.5 µM), without a hit: at the top dose fluorescence increase, hits mostly activators; active = well fitted activation curve with a large enough effect; inconclusive = small, poorly fitted or top-dose-only effect;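 note: potency is the fitted concentration of half-maximal effect; 0% is about no effect; scaled to a free AFC standard on each plate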
#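 Titrations up to 57 uM read every 20 sec for 3 min (405/520 nm) with 50 nM caspase 1 and 5 uM Ac-WEHD-AFC, pH 7.5 HEPES buffer. Fluorescence-vs-time intercept gave baseline, scaled against on-plate AFC standard.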
# A488 autofl – compound fluoresces in the A488 spectral region. compound autofluorescence, A488 spectral region, dye equivalency; hits give high values. max dye equivalency, M. 0.1% of 59,000 active. AID 591; active = above 10 nM dye equivalent; inconclusive = 1 to 10 nM; inactive = 1 nM or less; about half of its hits are not listed in these tables;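 note: highest value over a series up to 38 µM; compound alone in buffer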
#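 Compound autofluorescence was read in 100 mM Tris pH 8.0 after 15 min at room temperature, ex 480 nm/em 540 nm. Intensities were converted to A488 dye-equivalent concentration using an on-plate six-point A488 standard curve.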
# * = called active by the depositor; i = inactive; ? = inconclusive; . = no result given; & = joins results of further samples; [ ] = remark or other dose. An excerpt; rates above refer to the full screens.
smiles,A647 autofl,Resorufin fluor,TSHR agonist,AID923,A488 autofl
O=C(c1ccc(F)cc1)N1CCN(C2CC3CCC2C3)CC1 (stereo not drawn),1.64e-08,i,-2.7%,0.1%,i
COC(=O)C(O)(CC(=O)Nc1ccc(OC(F)(F)F)cc1)C(F)(F)F (stereo not drawn),5.3e-09,i,9.2%,-2.0%,i
CCSc1nnc(NC(=O)CSc2ncccn2)s1,.,.,?,4.2%,.
CC1CCCC(NC(=O)CSc2nnnn2C)C1C (stereo not drawn),1e-09,i,3.0%,-0.2%,i
Cc1cc(NS(=O)(=O)c2ccc(NC(=O)CCCOc3ccc(Cl)cc3)cc2)no1,1e-09,i,-18.3%,-4.9%,i
COc1ccccc1Cc1noc(C(C)(C)NC(=O)c2ccccc2)n1,2.8e-09,i,-6.1%,-3.2%,i
COCCn1c(=O)c(C)nc2cnc(Nc3ccccc3)nc21,5.2e-09,i,?,10.4%,i
O=C1OC(c2ccc(O)cc2)(c2ccc(O)cc2)c2ccccc21,1e-09,i,?,-2.2%&1.7%,i
COc1ccc(C2C(C(C)=O)=C(O)C(=O)N2CCc2ccccc2)c(OC)c1 (stereo not drawn),2.92e-08,i,0.6%,0.9%,i
O=C(Cn1ncc2ccccc21)N1CCN(c2cccc(C(F)(F)F)c2)CC1,2.55e-08,i,3.1%,-0.1%,i
CC(=NCC1CCNCC1)C1=C(O)CC(C)(C)CC1=O,.,.,1.6%,0.1%,.
O=C(Cn1nc(Cc2ccncc2)c2ccccc2c1=O)N1CCc2ccccc2C1,.,.,-5.1%,2.8%,.
O=C(Nc1ccccc1)NC1CS(=O)(=O)CC1O (stereo not drawn),1e-09,i,-1.0%,2.4%,i
COC(=O)[C@H]1C2CCC(C(=O)OC)(CC2)[C@H]1C(=O)OC,1e-09,i,7.6%,-0.7%,i
O=C(Nc1ccc(Cl)cc1)N(Cc1cccnc1)Cc1ccco1,3.41e-08,i,4.7%,-0.7%,i
CC1(C)CNC(=O)c2sc(NC(=O)CN3CCOCC3)nc2C1,1.7e-09,i,1.4%,-0.5%,i
Cc1cc(-n2c(C)cc(C(=O)CN3C(=O)NC4(CCCCC4)C3=O)c2C)no1,1.24e-08,i,-2.6%[11.4 µM],0.4%,i
Brc1ccc(-c2csc(/N=C/N3CCOCC3)n2)cc1,1.07e-08,i,?,-1.6%,i
OC[C@@H]1O[C@@H](n2cnc3c(N[C@H]4CCC[C@@H]4O)ncnc32)[C@H](O)[C@H]1O,.,.,17.7%,-2.1%,.
CC[N+](C)(CC)CCC[n+]1c(-c2ccccc2)c2cc(N)ccc2c2ccc(N)cc21,1.7e-09,?,-7.3%[25.6 µM],2.6%[25.7 µM],i
Cc1ccc(-c2n[nH]c(=S)n2C)cc1,.,.,0.9%,3.4%,.
Cc1cc(C(=O)OCn2nnc3ccccc3c2=O)c(C)n1-c1ccccc1,1e-09,i,11.5%,2.2%,i
O=C(Nc1ccc(Br)cc1Cl)Nn1cnnc1,2.6e-08,i,-8.4%,-1.7%,i
CC1(C(=O)O)C=CCN1C(=O)c1ccccc1 (stereo not drawn),.,.,8.5%,2.4%,.
CCOCCCNC(=O)Cn1nc(-c2ccccc2)ccc1=O,.,.,2.7%,1.4%,.

smiles,A647 autofl,Resorufin fluor,TSHR agonist,AID923,A488 autofl
CCOC(=O)c1sc(=NC(=O)c2ccc(S(=O)(=O)N3CCOCC3)cc2)n(C)c1C,1.09e-08,i,?,1.7%,i
O=C(NCc1ccco1)c1cc(-c2ccccc2)on1,1e-09,i,0.8%,-1.9%,i
CCOC(=O)C1CCCN(CC(=O)Nc2c(C(=O)OC)[nH]c3ccc(Cl)cc23)C1 (stereo not drawn),3.7e-09,i,1.6%,1.0%,i
Cc1ccc2[nH]c(=O)c(C(c3nnnn3CC3CCCO3)N3CCc4ccccc4C3)cc2c1 (stereo not drawn),1e-09,i,13.1%,3.3%,i
Cc1cc(OC(=O)CNC(=O)OC(C)(C)C)c2c(C)cc(=O)oc2c1,1e-09,i,?,-0.1%,i
CN1CCN(c2nc3c(c(=O)n(C)c(=O)n3C)n2C)CC1,6.4e-09,i,3.8%[11.4 µM],-0.1%[11.5 µM],i
NC(=O)CSc1nnc(Cn2c(=O)sc3ccccc32)n1-c1ccccc1,.,.,-1.8%,1.3%,.
CC(C)CCNC(=O)CN(CCN1CCOCC1)C(=O)Cn1nnc(-c2ccc(F)cc2)n1,1.12e-08,i,7.0%,-0.7%,i
COc1ccccc1N1CCN(C(=O)CSc2nnc(NC(=O)C3CCC3)s2)CC1,1.34e-08,i,-4.9%,-0.9%,i
Nc1nc(C2CCCN2S(=O)(=O)c2ccc(Cl)cc2)cs1 (stereo not drawn),2.39e-08,i,1.4%,2.8%,i
Cc1cc(NC(=O)c2cc(-c3ccc4c(c3)OCO4)on2)n(-c2ccccc2)n1,1e-09,i,5.5%,2.0%,i
CCOC(=O)N/N=C1/C[C@@H](O)[C@@H](O)[C@@H]2[C@@H]3C(=O)N(C[C@@H]4CCCO4)C(=O)[C@H]3CC[C@H]12,.,.,-2.0%[11.4 µM],-1.4%[11.5 µM],.
Cc1cccn2c(=O)c3cc(C#N)c(=N)n(Cc4ccncc4)c3nc12,1e-09,i,.,.,i
Cn1cnnc1SCC(=O)Nc1ccccc1Sc1ccccc1,5.1e-09,i,1.6%,-3.6%,i
COc1ccc(C2SCC(C(=O)O)N2C(C)=O)cc1OC (stereo not drawn),.,.,-0.4%,1.2%,.
C=C(C)CN1CCN(c2c(CCC#N)c(C)c(C#N)c3nc4ccccc4n23)CC1,1e-09,i,.,.,i
CC1=C(/C=C/C(C)=C/C=C/C(C)=C/C(=O)Nc2ccc(O)cc2)C(C)(C)CCC1,.,.,-8.5%,-2.9%,.
COc1ccc(NC(=O)c2ccc(S(=O)(=O)N(C)C)cc2)cc1OC,2.49e-08,i,-1.4%,1.6%,i
Cc1cc(C(=O)OCC(=O)c2ccc3c(c2)OCCO3)c(C)o1,1e-09,i,?,0.5%,i
O=C(O)c1nc(-c2ccccc2)[nH]c1C(=O)O,1e-09,i,-1.6%[11.4 µM],13.1%[11.5 µM],i
Cc1ccc(S(=O)(=O)NCCC(=O)Nc2nnc(C3CC3)s2)cc1C,3.37e-08,i,5.8%,0.3%,i
COc1ccccc1CN1C(=O)C2CC=CCC2C1=O (stereo not drawn),8.9e-09,i,12.1%,1.8%,i
CCN(CC)CC#CCOC(=O)C(O)(c1ccccc1)C1CCCCC1 (stereo not drawn),1.2e-09,i,.,.,i
c1cn(-c2ncnc3sc4c(c23)CCCC4)cn1,.,.,8.7%[11.4 µM],0.1%,.
COc1ccc(-n2c(Cn3c(=O)sc4ccccc43)nnc2SCC(=O)N2CCCCC2)cc1,.,.,0.1%,-2.5%,.

smiles,A647 autofl,Resorufin fluor,TSHR agonist,AID923,A488 autofl
COc1ccc(C(=O)CSc2nc3nc(C)cc(C)c3c(=O)[nH]2)cc1OC,1.58e-08,i,-11.5%,-1.2%,i
COc1ccc(Cn2c(CCC(=O)Nc3ccc(CC#N)cc3)nc3cccnc32)cc1,4.01e-08,i,15.3%,-2.1%,i
Cc1nc2cnc(OCc3ccccc3)nc2n(Cc2ccc(F)cc2)c1=O,2.51e-08,i,?,-0.3%,i
CCOc1cccc(C=Nc2cc(C)cc(C)c2O)c1O,.,.,-19.2%,8.0%,.
CC(=O)NCCc1c[nH]c2ccc(O)cc12,1.3e-09,i,-12.2%,-0.7%&-1.2%,i
N#Cc1c(NC(=O)CSc2nc3ccccc3c(=O)n2Cc2ccco2)sc2c1CCCC2,2.18e-08,i,?,-1.5%,i
COc1cc(Br)cc(-c2nc3c(c(=O)[nH]c(=O)n3Cc3ccccc3)n2C)c1O,1e-09,i,-3.2%,0.3%,i
CN(C)S(=O)(=O)c1ccc(C(=O)Nc2cccc(C(=O)O)c2)cc1,1e-09,i,9.6%,2.1%,i
OCCCNCc1ccncc1,4e-08,i,-1.2%[11.4 µM],-1.3%[11.5 µM],i
Cc1c(NC(=O)c2cc(C(C)C)on2)c(=O)n(-c2ccccc2)n1C,1.35e-08,i,-1.1%,2.2%,i
Oc1ccccc1CNn1cnnc1,1.14e-08,i,.,.,i
O=C1C=C(NCc2ccc(Cl)c(Cl)c2)CC1,.,.,2.0%,1.3%,.
CC(=O)C1=C(O)C(=O)N(c2ccc(Br)cn2)C1c1ccccc1F (stereo not drawn),1e-09,i,.,.,i
O=C(CN(CC(=O)N1CCOCC1)S(=O)(=O)c1ccc(Br)s1)N1CCOCC1,1e-09,i,-1.3%,0.7%,i
CCOc1cccc(NC(=O)Cc2cccs2)c1,.,.,0.5%,-0.6%,.
Cn1cc(-c2nc3cnc(N4CCNCC4)nc3n(C)c2=O)c2ccccc21,1.5e-09,i,-6.6%,13.9%,i
O=C(CCCNS(=O)(=O)c1ccc(Br)cc1)N1CC[C@@]2(O)CCCC[C@H]2C1,1e-09,i,4.3%,-0.9%,i
CCS(=O)(=O)c1nc(NC(C)=O)n[nH]1,1.13e-08,i,2.1%,0.4%,i
C/C(Nc1ccc(F)cc1)=C(/C#N)C(N)=O,3.67e-08,i,-8.8%,-2.3%,i
Cc1cc(C)n(-c2nc3c(c(=O)[nH]c(=O)n3C)n2Cc2ccc(F)cc2)n1,1.8e-08,i,6.8%,0.4%,i
O=C(Oc1ccc(-c2cnc3ccccc3n2)cc1)c1ccco1,.,.,1.0%[11.4 µM],1.0%,.
COc1cccc(-c2nnc3sc(-c4ccc(Cl)cc4)nn23)c1,1.11e-08,i,.,.,i
O=C(O)CCc1ccc(-c2ccccc2)n1NC(=O)c1ccco1,1.08e-08,i,6.7%,-0.7%,i
COc1ccccc1NC(=O)CSc1nccc(=O)[nH]1,4.2e-09,i,.,?,i
CC(C)C(OC(=O)c1ccco1)C(=O)NC1CCCCC1 (stereo not drawn),6.6e-09,i,8.2%,0.2%,i

smiles,A647 autofl,Resorufin fluor,TSHR agonist,AID923,A488 autofl
COc1ccc2nc(/N=C(\N)NC(=O)C(C)(C)C)nc(C)c2c1,1e-09,i,.,.,i
COc1ccc(C2(O)CC3CCC(C2)N3c2cc(C)nc(-c3ccccc3)n2)cc1 (stereo not drawn),1e-09,i,15.0%,0.6%,i
Cc1cc(=O)oc2cc(OCC(=O)N3c4ccccc4CC3C)ccc12 (stereo not drawn),3.53e-08,i,14.8%,0.4%,i
COc1cccc(C2=NC(C)(C)NC(c3ccccc3O)C2)c1 (stereo not drawn),1e-09,i,24.5%,14.7%,i
Cc1cc(C(=O)OCC(=O)N2CC(=O)Nc3ccccc32)no1,1.3e-09,i,-1.1%,1.0%,i
COc1ccc(NC(=O)CCc2nc(-c3ccc(C)cc3)no2)c(OC)c1,1.4e-09,i,14.1%,-0.8%,i
NC(=O)C1CC(=O)N(c2ccc(OCC(=O)Nc3cccc(C(F)(F)F)c3)cc2)C1 (stereo not drawn),1.5e-09,i,5.6%,1.7%,i
Cc1ccc(C2CC(c3ccc(C)cc3)n3nc(N)nc3N2)cc1 (stereo not drawn),.,.,8.6%,1.6%,.
O=C1CC(C(=O)O)c2ccccc2N1 (stereo not drawn),5.72e-08,i,.,.,i
CCC12CN3CC(CC)(CN(C1)C3c1ccc(OC(C)C)cc1)C2=O (stereo not drawn),2.05e-08,i,1.6%,-0.1%,i
